Assay outcomes as filed in PubChem.
NPYLR7 agonist: mosquito NPYLR7 agonism; HEK293T NPYLR7/Galpha15, GCaMP6s calcium fluorescence; activation, % at 10 µM; 270,000 compounds, 0.15% hits; AID 1259423; in the data active means activation above about 40%;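 further: 0% = vehicle and 100% = reference agonist at the receptor; some compounds past the cut are filed as inactive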
NPYLR7 agonist max-min: recorded beside NPYLR7 agonist, whose call it bears; activation, %; measured here: Max-Min RFU normalised activation; some inactives read as strong as hits;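 span of the calcium signal over five minutes; 0% = vehicle and 100% = native peptide agonist; compound fluorescence can raise it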
Starred values were filed as active, the others as inactive; & = joins results of further samples. These rows are one share of the data, so the mix of outcomes need not match the whole.

SMILES,NPYLR7 agonist max-min,NPYLR7 agonist
O=C(c1c(F)cccc1F)N1CCc2ccccc2C1c1ccc(Cl)cc1 (stereo not drawn),4,19
CC(C)Cc1cc(C(=O)N2CCCN(C(=O)C3CCCO3)CC2)n(C)n1 (stereo not drawn),26,1
Cn1nnc2cc(C3CC(=O)Nc4n[nH]c(-c5ccccc5)c43)ccc21 (stereo not drawn),5,6
COc1ccc(CNC(=O)c2sc(=O)n(Cc3ccc(F)cc3)c2C)cc1OC,3,9
CCN(CC)c1c(C)nc2ccc(C(=O)NC3CCN(C)CC3)cn12,-5,-2
CCN(CC)CCN(C(=O)c1cc(C)n(C)n1)c1nc2c(OC)ccc(C)c2s1,-1,2
CCN1CCCC1CNC(=O)CCc1cc2c(n1-c1ccc3c(c1)OCO3)-c1ccccc1CC2 (stereo not drawn),-3,-1
COc1ccccc1CCC(=O)Nc1ccc2c(c1)CN(C(C)C(C)C)C2 (stereo not drawn),2,4
CC(Cc1ccc2c(c1)OCO2)c1nccn1Cc1ccoc1 (stereo not drawn),-9,-5
Cc1cc(C(C)(C)C)ccc1OCC(O)Cn1cnc2ccsc2c1=O (stereo not drawn),0,4
CC(NS(C)(=O)=O)C(=O)NC(C)c1cccc(Cl)c1Cl (stereo not drawn),-6,-7
N#Cc1ccc(NN=C(c2ccccc2)c2ccccc2)c([N+](=O)[O-])c1,-5,-1
CCc1[nH]n2c(=O)c(CC(=O)OC)c(C)nc2c1-c1ccc(OC)cc1,-23,-17
CCc1nnc(SCc2cc(=O)n3ccccc3n2)c2cc3occc3n12,3,6
O=c1[nH]c(Nc2ccccc2)cc2ccccc12,8,7

More records
SMILES,NPYLR7 agonist max-min,NPYLR7 agonist
Cc1ccc(C2c3cccn3CCCN2Cc2ccncc2)cc1C (stereo not drawn),2,-4
CCc1ccc(-n2c(Cc3nc(C)cs3)n[nH]c2=O)cc1,1,9
CS(=O)(=O)c1ccc2nnn(OCc3cccc(F)c3)c2c1,-3,-2
Cc1cc(OCC(=O)NNC(=O)C(C)N2C(=O)c3ccccc3C2=O)cc(C)c1Cl (stereo not drawn),-8,-5
Cc1ccccc1-n1c(SCC(=O)N2CCOCC2)nnc1-c1ccncc1,39,31
CC(=O)Nc1ccc(N2C(=O)CSC2c2cccc(C(F)(F)F)c2)cc1 (stereo not drawn),-8,-4
Cc1[nH]n(-c2nc(-c3ccccc3)cs2)c(=O)c1N=Nc1ccccc1[N+](=O)[O-],-8,-6
CC(C)NC(=O)CN1CCN(Cc2nnc(CC3CCNCC3)n2C)CC1,4,9
CCC1OC(=O)CC(O)C(C)C(OC2OC(C)CC(N(C)C)C2O)C(CC=O)CC(C)C(=O)/C=C/C2(C)OC2C1C (stereo not drawn),-25,-20
COc1ccccc1OCC1CN(C(=O)C(C)NC(=O)OCc2ccccc2)CCO1 (stereo not drawn),21,27
CCCCCCc1ccc(C(=O)N2CCSC2c2ccc(C(F)(F)F)cc2)cc1 (stereo not drawn),18,20
O=c1c2c3c(sc2ncn1CCc1cnn(-c2ccccc2)c1)CNCC3,-9,-5
CC#CCN1CCC2(CC1)CN(CC(=O)OC)C(=O)O2,11,11
N#CCC(=O)NC1CCCCC1,1,1
CCc1nc2ccc(C(=O)N(C)CCCN(C)C)cn2c1N(C=O)CCC(C)C,-8,-4

Arranged by SMILES length (low to high): part of the list above.
SMILES,NPYLR7 agonist max-min,NPYLR7 agonist
Cc1ccc(C2c3cccn3CCCN2Cc2ccncc2)cc1C (stereo not drawn),2,-4
CC(C)NC(=O)CN1CCN(Cc2nnc(CC3CCNCC3)n2C)CC1,4,9
COc1ccccc1OCC1CN(C(=O)C(C)NC(=O)OCc2ccccc2)CCO1 (stereo not drawn),21,27
Cc1[nH]n(-c2nc(-c3ccccc3)cs2)c(=O)c1N=Nc1ccccc1[N+](=O)[O-],-8,-6
CCC1OC(=O)CC(O)C(C)C(OC2OC(C)CC(N(C)C)C2O)C(CC=O)CC(C)C(=O)/C=C/C2(C)OC2C1C (stereo not drawn),-25,-20

(cont.)
SMILES,NPYLR7 agonist max-min,NPYLR7 agonist
Cc1ccc(OCC(=O)N2CCC(n3cc(-c4ccccn4)nn3)CC2)cc1,0,2
CC1CCN(c2ccc(NC(=O)c3ccc(-c4ccccc4)cc3)cc2C(=O)NCC2CCCO2)CC1 (stereo not drawn),9,-1
O=C1/C(=C/c2cccnc2)Oc2cc(OC(=O)N3CCOCC3)ccc21,-1,3
COC(=O)c1oc2c(c1C)C(=O)CC(c1ccc(F)cc1)C2 (stereo not drawn),-1,-1
COc1ccc(CN2CCN(C3CCCCC3)CC2CCO)c(C)c1C (stereo not drawn),5,6
CCn1c(Cc2ccccc2)n[nH]c1=S,-13,-7
Cc1cc(Oc2cnn(C)c(=O)c2Nc2cccc(C(=O)N3CCN(C)CC3)c2)ccc1Cl,17,8
CCOc1ccccc1CN1CCC(CCC(=O)NCc2ccc(F)cc2)CC1,3,7
CC(=O)Oc1ccc2c(=O)c(-c3ccc4c(c3)OCCCO4)c(C)oc2c1OC(C)=O,1,12
COc1cc(C=C2Oc3cc(O)ccc3C2=O)cc(OC)c1OC,78*,83*
CN(C)CCN(Cc1cc(NC(=O)c2ccccc2Cl)ccc1N(C)C)C(=O)c1ccco1,-6,-5
CCOC(=O)C1CCCN(C(=O)c2cc3n(n2)CCN(CC2CC2)C3=O)C1 (stereo not drawn),-10,-9
CC(C)(C)c1cc(C(F)(F)F)n2ncnc2n1,6,11
OC(CC1COCCN1)c1cccs1 (stereo not drawn),1,4
CCC(=O)Nc1c(-c2ccc(C)cc2)nc2ccc(C)cn12,-6,-5

Following part
SMILES,NPYLR7 agonist max-min,NPYLR7 agonist
COc1ccccc1NC(=O)CC1SC(=NCCc2cccs2)NC1=O (stereo not drawn),6,7
CCS(=O)(=O)c1ccccc1C(=O)OCC(=O)NC1CCOc2ccccc21 (stereo not drawn),-5,-3
N#CC(C#N)=Cc1cn(-c2ccccc2)nc1-c1cc2ccccc2o1,-16,-9
c1ccc(-c2cn3ccccc3n2)cc1,12,15
CCN(CC)c1c(C)nc2ccc(C(=O)N(C)Cc3ccccc3)cn12,-8,-4
COCC1(C)NC(=O)N(Cc2nc(Cc3ccccc3C)no2)C1=O (stereo not drawn),0,0
O=C(CCCn1ncn2c(cc3occc32)c1=O)NC1CCCCCC1,0,2
O=C(c1csc(-c2cccs2)n1)N1CC(=O)N2C3CCC(O)(CC3)C2C1 (stereo not drawn),21,24
CC(C)C[C@@H](N)C(=O)N(Cc1nccn1C)C1CC1,5,8
CC(C)OC(=O)C(C(=O)OC(C)C)=C1SC=CS1,-4,-2
O=C(NCCc1ccc(Cl)cc1Cl)c1cc(-c2ccc([N+](=O)[O-])cc2)nn1-c1ccccc1Cl,15,8
Cc1c(C(=O)NC2CC2)sc(=O)n1Cc1ccccc1F,6,10
Cc1cnc(NC(=O)C2(C)CCCN(C)C2)s1 (stereo not drawn),-1,-1
CC1(C(=O)NCc2ccccc2Br)CCN1C(=O)Cc1cc(F)ccc1F (stereo not drawn),6,9
Cc1cc(C(=O)CSC2CCCC2)c(C)n1-c1ccc2c(c1)OCO2,4,8

Next part.
SMILES,NPYLR7 agonist max-min,NPYLR7 agonist
Cc1sc2nc3c4ccccc4c(NCC4CN(CC(C)C)CCO4)nn3c(=O)c2c1C (stereo not drawn),5,6
Cc1cccc(NC(=O)N2CCOC(C)(c3cnn(C)c3)C2)c1Cl (stereo not drawn),3&-25,4&-24
O=C(NC1CCCCC1)c1cc(-c2ccc([N+](=O)[O-])cc2)nn1-c1ccccc1Cl,7,0
CCC(C)N1C(=O)/C(=C\c2ccc(OCC(=O)O)cc2)N(C)C1=S (stereo not drawn),12,0
CC(C)(C)c1nc(CS(=O)(=O)CC(O)c2ccccc2)no1 (stereo not drawn),4,7
Cc1cccc(COCC2CN(C(=O)c3ccc(C#N)cc3F)CCO2)c1 (stereo not drawn),-12,-5
CCOc1ccc2nc(N=Cc3nc(-c4ccccc4)oc3O)sc2c1,-16,-7
COc1ccccc1-n1c(SCC(=O)Nc2cc(C)on2)nc2c([nH]c3ccccc32)c1=O,-6,-8
O=C(Nc1ccccc1CCC(F)(F)F)C1=CCCCO1,2,9
CC(=O)NC1C(Oc2ccc([N+](=O)[O-])cc2)OC(CO)C(O)C1O (stereo not drawn),1,1
CN(Cc1cc2n(n1)CCCNC2)Cc1noc(-c2ccccc2)n1,7,8
Cc1c(C(=O)NCc2cccc([N+](=O)[O-])c2)sc(=O)n1Cc1ccc(C(C)C)cc1,6,13
COC(=O)CN(Cc1ccccc1)Cc1ccccc1C#N,3,5
CCOc1ncccc1CN1CCCC(C(=O)NCCc2cccc(OC)c2)C1 (stereo not drawn),-18,-13
Cc1noc(-c2ccc(OC(F)(F)F)cc2)c1C(=O)NCc1cccc(Cl)c1,4,5

Carrying on.
SMILES,NPYLR7 agonist max-min,NPYLR7 agonist
O=C(c1cn(C(c2ccccc2)c2ccccc2)nn1)N1C[C@@H]2CCC[C@H]1C2,-1,1
O=C1Nc2ccc([N+](=O)[O-])cc2C1(O)N1CCCCC1 (stereo not drawn),0,5
COC(=O)c1cccc(NC(=O)N2CCc3cc(OC)c(OC)cc3C2c2ccccc2Cl)c1 (stereo not drawn),9,-3
C[C@H]1[C@H](C)C[C@@H](C(=O)O)C2CC[C@]3(C)C(=CC[C@@H]4[C@@]5(C)CC[C@H](O)C(C)(C)[C@@H]5CC[C@]43C)[C@@H]21 (stereo partly drawn),-3,-2
Cc1ccn2c(=O)cc(COC(=O)C34CCC(=O)N3c3ccccc3S4)nc2c1 (stereo not drawn),6,0
CN1CC=C2C(C#N)C(=N)C(C#N)(C#N)C(c3ccc(F)cc3)C2C1 (stereo not drawn),37,47
CCN1/C(=C\C(=C2\C(=O)N(C)C(=S)N2C)c2ccccc2)Sc2ccccc21,-3,-2
Cc1ccc(C)c(S(=O)(=O)N2CCN(CN3C(=O)CC4(CCCC4)C3=O)CC2)c1,10,4
O=C1C2C3CCC(C3)C2N1CN1CCC(CN2CCOCC2)CC1 (stereo not drawn),-9,-5
CC(C)Nc1cc(-c2cc(Cl)c3c(c2)CC(CN)O3)ncn1 (stereo not drawn),5,9
COc1cc(-n2c(CO)nc3ccccc32)ccc1NC(C)=O,2,0
CCc1nc2c(OCc3ccc(F)cc3)cccn2c1N(C)C(=O)CC(C)C,4,-1
Cc1noc(C)c1S(=O)(=O)NCCn1nc(-c2ccccc2)n(C)c1=O,3,5
Cc1noc(C)c1CC(=O)NC1CC(=O)N(Cc2cccc3ccccc23)C1 (stereo not drawn),5,17
CC(C(=O)N1CCCC1)N1CCN(CC(=O)Nc2ccccc2C(F)(F)F)CC1 (stereo not drawn),14,4

New compounds follow.
SMILES,NPYLR7 agonist max-min,NPYLR7 agonist
COc1cccc(-n2cc(CN(C)Cc3ccc(O)c(Cl)c3)cn2)c1,2,4
Cc1nnc(-c2cc3ccccc3n2CC(=O)Nc2ccc(C(N)=O)cc2)o1,-4,-7
CCN(CC(=O)c1ccco1)C1CCCCC1,-8,-3
Cc1ccc(N2C(=O)CC(Sc3nc(C)cc(C(F)(F)F)c3C#N)C2=O)cc1 (stereo not drawn),-4,-1
Cc1ccccc1-c1ncc(CN2CCCC(N(C)Cc3ccccc3)C2)cn1 (stereo not drawn),5,13
O=C(Nc1ccccc1N1CCCC1=O)c1ccc(F)cc1F,-9,-5
CC(=O)c1ccc(NC(=O)C(C)N2CCCC(N(C)Cc3ccccc3)CC2)cc1 (stereo not drawn),6,7
COC(=O)NCC(=O)Nc1ccccc1-c1cc(F)c(F)c(F)c1,2,4
Cc1ccccc1NC(=O)NCCOc1cc(N2CCCC2)ncn1,-1,0
Cc1ccsc1C(=O)N1CCC1(C)C(=O)Nc1c(C)cccc1OC(F)F (stereo not drawn),3,4
Cc1cc(C)c2c(n1)nn1c(Nc3ccc(C)c(Cl)c3)cc(C)nc21,8,-2
CS(=O)(=O)c1nc(S(=O)(=O)c2ccc(Cl)cc2)c(N2CCOCC2)s1,3,4
CC(=O)Nc1ccc(SCC(=O)NC2CCCC2)nn1,-3,-2
CCCNC(=O)N(CCCOC)CC(=O)N1CCc2sccc2C1COc1ccc(Cl)c(C)c1 (stereo not drawn),17,23
CCOC(=O)c1nc2cc(C)c(C)cc2nc1N1CCN(C(=O)CCCC(=O)OC)CC1,28,23

The list goes on:
SMILES,NPYLR7 agonist max-min,NPYLR7 agonist
CN(Cc1ccccc1)c1ncccc1CNC1CCSCC1,5,17
COc1cccc(-n2c(=O)[nH]c3c(C(N)=O)nc(-c4ccc(O)cc4)nc32)c1,2,12
CSCC(C)C(=O)NCC1(C(=O)N(C)C)CCCC1 (stereo not drawn),3,4
COc1ccc(CCNC(=O)c2cc3ccsc3n2Cc2ccccc2C)cc1OC,3,-1

Two entries drawn at random from those above, as already listed:
SMILES,NPYLR7 agonist max-min,NPYLR7 agonist
CC(=O)c1ccc(NC(=O)C(C)N2CCCC(N(C)Cc3ccccc3)CC2)cc1 (stereo not drawn),6,7
O=C1/C(=C/c2cccnc2)Oc2cc(OC(=O)N3CCOCC3)ccc21,-1,3
